Mtb hypoxia inh – inhibitors of hypoxia-regulated fluorescent reporter in Mycobacterium tuberculosis; M. tuberculosis hypoxia-regulated fluorescent reporter, fluorescence; fluorescence inhibition, % (no concentration beside the values); 300,000 compounds, 0.1% hits;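 active = 35 to 45% if threefold the growth effect, above 45% if 1.5-fold the growth effect; inactive = the rest, general growth blockers included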;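 also: wells of about 50 µL received 100 nL stock; 0% = vehicle wells and 100% = reference inhibitor wells; whole bacteria with a GFP reporter of the hypoxia response; strong numbers were not always called active; many hits fall short of the cut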
Bead autofluor – flagged as autofluorescent in microsphere protease counterscreen | compound autofluorescence counterscreen, microsphere flow cytometry; stronger effect = higher value | fluorescence intensity (concentration not given with the values) | 360,000 compounds, 3.1% hits | AID 624483;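 active = at least 3 SD above the mean of all compounds, about 16000 in these data; inconclusive = too few beads counted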;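 also: 100 nL of 1 mM stock went into each well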
RN4220 kill – kills Staphylococcus aureus RN4220. S. aureus RN4220 growth, OD600, 16 h. inhibition, % (concentration not given with the values). 330,000 compounds, 0.33% hits. AID 1259311;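 active = z-score of -3 or lower and OD600 up to 0.18 on both plates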;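 also: plate controls were untreated cells for no effect and reference antibiotic for full effect; stock transfer was 100 nL into about 80 µL; one replicate is shown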
ugtP null kill – kills S. aureus RN4220 lacking UgtP; S. aureus RN4220 ugtP deletion, OD600 growth, 16 h; some inactives read as strong as hits; growth inhibition, % (no concentration beside the values); 330,000 compounds, 0.54% hits;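 active = z-score under -3 and OD600 up to 0.15 on both plates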;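 also: plate controls were untreated wells for no effect and antibiotic for full effect; wells of about 80 µL received 100 nL stock; the first replicate is given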
BJeLR lethal – kills HRASV12-expressing BJeLR cells; BJeLR (HRASV12) viability, CellTiter-Glo ATP luminescence, 48 h; reference of the scale not given here; inhibition, % (test concentration not listed); 300,000 compounds, 0.17% hits; AID 1554;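 active = replicate mean above 50%; inconclusive = above 50% but judged a plate artefact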;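 also: 50 nL library stock added to about 25 µL; numbers are from one replicate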
PrP UTR inh – suppresses PrP 5' UTR mRNA reporter expression | inhibition, % (concentration not given with the values) | 340,000 compounds, 0.35% hits | cell-based PrP 5' UTR mRNA reporter, plate reader;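 active = every replicate at 50% or more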;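 also: 0 = median of the neutral control wells; tested in H4 reporter cells; numbers are from one replicate; inactives centre near -14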
Mtb hypoxia inh growth – recorded beside Mtb hypoxia inh, whose call it bears; growth inhibition, %; measured here: M. tuberculosis growth (absorbance);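 0% = vehicle and 100% = reference antibiotic; read after six days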
Active calls of the source: *; ? = inconclusive; . = no result given.

no.	molecule	Mtb hypoxia inh	Mtb hypoxia inh growth	Bead autofluor	RN4220 kill	ugtP null kill	BJeLR lethal	PrP UTR inh
1	COc1ccc(C(=O)Cn2c(=O)c(CCC(=O)O)nn3c4ccccc4nc23)cc1OC	-4	5	3544	-3.6	-5	-1	-5
2	Cc1cc(S(=O)(=O)NCc2ccccn2)c(Cl)cc1Cl	18	19	3789	7.4	12	-10	-22
3	CCN1CCCC1CNC(=O)CN(C)S(=O)(=O)c1ccc(Cl)cc1 (configuration not stated)	1	1	3723	3.2	1	3	-13
4	C/C(=N\NC(=O)c1cccc(Br)c1)c1ccccn1	.	.	5813	.	.	-14	38
5	CC1CCCCN1C(=O)Cn1cc(C#N)c2ccccc21 (configuration not stated)	19	9	2862	-9.2	-7	-6	-9
6	CCCCn1c(N)c(N(CCOC)C(=O)CC2CCCCC2)c(=O)[nH]c1=O	-1	-2	5335	2.3	4	.	-3
7	COc1cccc(NC(=O)CN(C)C(=O)c2cn(-c3ccccc3)nc2-c2cccs2)c1	3	-2	6160	0.7	0	-2	-22
8	O=C(NN=Cc1sc(=O)n(Cc2ccc(Br)cc2)c1Cl)c1ccco1	-4	-3	.	-0.3	1	.	.
9	CCOc1ccc(CCN2C(=O)C3C4CCC(O4)C3C2=O)cc1OCC (configuration not stated)	13	5	3482	5.1	3	.	-22
10	COc1ccc2c(c1OC)C(=O)OC2CC(=O)c1ccc(N(C)C)cc1 (configuration not stated)	13	10	2774	6.3	0	3	-14
11	Clc1ccc(-c2nn3c(C4COc5ccccc5O4)nnc3s2)cc1 (configuration not stated)	0	20	4458	-2.3	-24	0	-17
12	O=C(COC(=O)[C@H](Cc1ccccc1)NS(=O)(=O)c1ccccc1F)NC1CCCCC1	-2	3	18375*	10	-2	0	-27
13	Cc1nnc(SCC(=O)Nc2ccc(Br)cn2)[nH]c1=O	0	11	.	3.4	-1	6	-5
14	CCC(C)c1nc2ccsc2c(N2CCOC2=O)c1-c1ccccc1 (configuration not stated)	16	19	2935	3.4	13	9	-29
15	CCN1C(=O)C(CC(=O)Nc2ccc(OC)cc2)N(Cc2ccco2)C1=S (configuration not stated)	-2	5	2351	-0.5	0	-17	-29
16	Clc1cc(CSc2ccccc2)nc(-c2ccccc2)n1	10	9	?	6.9	13	1	-3
17	CCOc1ccc(OCCC(=O)OCC(=O)N2CCN(S(=O)(=O)c3ccc(C)cc3)CC2)cc1	.	.	5144	.	.	-3	-14
18	COc1ccc(CNC/C=C/c2ccccc2)cc1	8	2	.	0.9	8	8	-8
19	CC(=O)NC(C)c1cc(F)c2cccnc2c1O (configuration not stated)	13	-4	3527	3.8	-2	.	-14
20	Cc1ccc(S(=O)(=O)NCCNS(=O)(=O)c2ccc(C)cc2)cc1	13	0	3338	2.1	2	1	.
21	COc1ccc(C2c3sc(=O)[nH]c3SCC2C(N)=O)cc1 (configuration not stated)	8	2	4035	-2.5	-3	-7	-15
22	Cc1ccc(NC(=O)C(C)N=C2NS(=O)(=O)c3ccccc32)cc1F (configuration not stated)	14	6	4461	0.5	11	-6	-28
23	Cc1nc2nc(SCC(=O)C(C)(C)C)[nH]c2cc1Br	.	.	2833	-2.3	-8	-4	-25
24	c1ccc(N2CCN(Cc3nnnn3C3CCCCC3)CC2)cc1	9	-1	5923	4.0	7	-6	-13
25	COCCNC(=O)c1ccc(S(=O)(=O)c2ccc(Cl)cc2)c(NC(C)=O)c1	2	-3	3027	1.0	9	-3	-11

The list continues.
no.	molecule	Mtb hypoxia inh	Mtb hypoxia inh growth	Bead autofluor	RN4220 kill	ugtP null kill	BJeLR lethal	PrP UTR inh
26	CNCC1Oc2c(NS(C)(=O)=O)cccc2C(=O)N(C(C)CO)CC1C (configuration not stated)	-5	-1	.	-2.2	-2	.	.
27	Cc1ccsc1C=NNC(=O)c1nnn(-c2nonc2N)c1CN(C)c1ccccc1	-3	1	.	3.0	-17	.	.
28	CN(CC(=O)Nc1ccccc1Cl)C(=O)c1cccc(S(=O)(=O)N2CCN(c3ccccc3)CC2)c1	0	-1	5980	0.4	-1	.	-2
29	Cc1ccccc1C1NC(=S)NC2=C1C(=O)CC(C)(C)C2 (configuration not stated)	11	4	3755	4.5	3	-29	-8
30	COc1ccc(S(=O)(=O)Nc2cc(C(=O)NC3CCCCCC3)ccc2N2CCOCC2)cc1	5	0	9931	4.6	-5	.	-30
31	COc1ccc(OCc2cc(C(=O)NCCN3CCCC(O)C3)no2)c(Cl)c1 (configuration not stated)	4	2	6379	1.1	8	4	-11
32	CSc1nc2ccc(NC(=O)c3c(-c4ccccc4)noc3C)cc2s1	-4	-2	4545	4.8	-4	-2	-25
33	COc1ccc(NC(=O)CSc2nc3ccsc3c(=O)n2CCCCCC(=O)O)cc1	3	2	3166	5.4	8	0	-17
34	CCc1nn(C(C)C(=O)NCc2ccc(Cl)cc2)c(=O)c2cc3occc3n12 (configuration not stated)	5	15	5433	6.4	-6	0	-11
35	COc1ccc(S(=O)(=O)NCC(c2ccc(F)cc2)N2CCOCC2)cc1Br (configuration not stated)	-1	1	5275	3.5	2	.	-31
36	CCc1cc(C(=O)NNC(=S)NCc2ccccc2)cs1	11	5	11564	2.6	-2	-3	-25
37	CC(C)CNC(=O)c1cccc(NC(=O)C(C)C)c1	7	-9	4450	6.0	13	-4	-6
38	Cc1cc(F)ccc1S(=O)(=O)N(CC(=O)N1CCOCC1)CC(=O)N1CCOCC1	3	-5	3870	0.9	4	.	-19
39	CCCCCn1c(=O)c(C(=O)Nc2cc(C)ccn2)c(O)c2ccccc21	13	3	4345	42	37	-16	-1
40	Cc1ccc(NC(=O)NNC(=O)Cn2nc(-c3ccccc3)c(-c3ccccc3)c(C#N)c2=O)cc1	.	.	3132	.	.	5	-7
41	Cc1cccc(C(=O)O/N=C(\N)c2cccc([N+](=O)[O-])c2)c1	.	.	7702	.	.	-7	-41
42	COC(=O)c1ccccc1NC(=O)CN(c1ccc(OC)cc1)S(C)(=O)=O	9	9	5662	7.3	-3	2	-13
43	O=C(CCN1CCCCC1)c1ccccc1	12	-6	16441*	4.8	18	1	-6
44	Cc1ccc(C)c(N2CCN(S(=O)(=O)c3ccc4c(c3)oc(=O)n4C)CC2)c1	-6	3	10275	5.7	-6	-1	-39
45	COc1ccc(S(=O)(=O)N2CCC(C(N)=O)CC2)cc1	8	8	4065	-0.5	4	9	0
46	O=C(O)/C=C/c1ccc(S(=O)(=O)NCc2ccco2)cc1	.	.	4856	.	.	-1	-8
47	C/C=C/c1ccc(OCCOc2cc(C=O)ccc2OC)c(OC)c1	-2	6	2086	2.2	38	-1	-45
48	CC(=O)c1ccc(S(=O)(=O)N2CCN(C(=O)/C=C/c3ccc4ccccc4n3)CC2)cc1	11	0	5460	6.1	-1	5	12
49	Clc1ccc(-c2cc(C3CCNCC3)[nH]n2)cc1	15	7	2643	-4.5	-4	-6	-11
50	COc1ccccc1NC(=O)c1cccc2c(Br)cccc12	4	1	4645	7.7	11	5	-30

2 entries picked at random from the list so far:
no.	molecule	Mtb hypoxia inh	Mtb hypoxia inh growth	Bead autofluor	RN4220 kill	ugtP null kill	BJeLR lethal	PrP UTR inh
24	c1ccc(N2CCN(Cc3nnnn3C3CCCCC3)CC2)cc1	9	-1	5923	4.0	7	-6	-13
10	COc1ccc2c(c1OC)C(=O)OC2CC(=O)c1ccc(N(C)C)cc1 (configuration not stated)	13	10	2774	6.3	0	3	-14

Complete entries, quoted from the list. Order of values: Mtb hypoxia inh | Mtb hypoxia inh growth | Bead autofluor | RN4220 kill | ugtP null kill | BJeLR lethal | PrP UTR inh
`COc1ccc(NC(=O)CSc2nc3ccsc3c(=O)n2CCCCCC(=O)O)cc1` is listed as 3 | 2 | 3166 | 5.4 | 8 | 0 | -17
`Cc1ccccc1C1NC(=S)NC2=C1C(=O)CC(C)(C)C2` (configuration not stated) is listed as 11 | 4 | 3755 | 4.5 | 3 | -29 | -8
`O=C(CCN1CCCCC1)c1ccccc1` is listed as 12 | -6 | 16441* | 4.8 | 18 | 1 | -6
`Clc1ccc(-c2cc(C3CCNCC3)[nH]n2)cc1` is listed as 15 | 7 | 2643 | -4.5 | -4 | -6 | -11
`CC(=O)c1ccc(S(=O)(=O)N2CCN(C(=O)/C=C/c3ccc4ccccc4n3)CC2)cc1` is listed as 11 | 0 | 5460 | 6.1 | -1 | 5 | 12

The results go on:
no.	molecule	Mtb hypoxia inh	Mtb hypoxia inh growth	Bead autofluor	RN4220 kill	ugtP null kill	BJeLR lethal	PrP UTR inh
51	COc1ccc(-n2c(SCC(=O)Nc3ccc(C(N)=O)cc3)nc3c([nH]c4ccccc43)c2=O)cc1OC	5	7	4687	5.4	3	15	-8
52	O=C(c1cc(-c2ccncc2)nc2ccc(Br)cc12)N1CCN(Cc2ccc3c(c2)OCO3)CC1	-13	-2	4338	2.1	-2	-17	-16
53	CCOc1ccc(NC(=O)CN(C)C(=O)c2cccnc2Sc2ccc(C)cc2C)cc1OCC	10	6	3876	3.2	2	.	-5
54	CC1=Nc2cc(C(=O)O)ccc2Sc2c(C)ccc(C)c21	6	-4	4386	8.3	-17	-2	-9
55	O=C(CCSc1ccccc1)Nc1nnc(-c2cccs2)o1	-2	0	5972	-3.5	5	9	0
56	CNC(=S)N/N=C/c1c2ccccc2c(Cl)c2ccccc12	.	.	5244	.	.	-16	-3
57	O=C1NC(=O)N(Cc2ccccc2)CC1Br (configuration not stated)	9	12	3509	1.2	0	.	-13
58	COCc1cc(C)nc(SCc2ccc(Cl)cc2)c1C#N	10	1	3940	8.1	10	-21	-20
59	N#CCSc1nc2c(sc(=S)n2Cc2ccco2)c(=O)n1-c1ccc(F)cc1	13	14	21835*	-4.6	22	-7	-10
60	COc1ccc2[nH]c(C(=O)NCc3ccccc3)c(C)c2c1	3	1	3404	0.1	14	9	-19
61	O=C(COc1ccc(Cl)cc1Cl)NCCCCc1ccccc1	11	9	11147	16	-20	-3	-27
62	CCCCCC(=O)Nc1nc2ccccc2[nH]1	-2	0	8609	1.6	-6	5	-56
63	OC1(c2cn(Cc3ccccc3)nn2)CCCCC1	.	.	4298	3.7	0	-2	-20
64	CCOC(=O)CCN=Cc1c(O)n(-c2ccc(Br)cc2)c(=O)[nH]c1=O	.	.	4679	0.2	-2	-2	-15
65	N/C(=N\OC(=O)CCC1CCCCC1)c1ccc([N+](=O)[O-])cc1	.	.	9480	.	.	2	-24
66	C=CCNC(=O)c1ccc(-n2cccc2)cc1	19	1	2343	5.0	8	1	-14
67	COc1cc(C=NNC(=O)c2ccc(Cn3cc(Br)c([N+](=O)[O-])n3)o2)cc(OC)c1O	1	-2	.	4.6	12	.	.
68	Cc1cc(OCC(=O)OCC(=O)N2CCc3ccccc32)ccc1Cl	-3	3	3912	1.9	-2	.	-7
69	O=C(COc1ccc(NC(=O)c2ccccc2)cc1)c1ccccc1	-10	-10	.	5.1	18	-1	-15
70	CCN1CCn2c1nc(N1CCCCC1)nc2=O	8	11	10308	5.7	1	-3	1
71	CCN1CCN(C(=O)c2ccc(S(=O)(=O)Nc3ccccc3)cc2)CC1	-6	1	3723	3.4	2	.	3
72	O=C(COc1ccc2cc(Br)ccc2c1)N1CCOCC1	11	5	3288	-0.4	-4	.	-27
73	COc1ccc(NC2CCCN(C(=O)CSc3ccccc3)C2)cc1OC (configuration not stated)	3	-5	6597	1.6	9	-1	-21
74	Cc1ccc(NC(=O)CN2CCN(C(=O)C3CCCO3)CC2)c(C)c1 (configuration not stated)	11	15	5204	2.8	1	-4	-27
75	CCCN(CCC)S(=O)(=O)c1cccc(-c2csc(C)n2)c1	6	-4	4029	5.2	15	-3	-14
76	CCOC(=O)c1nnn(CC(=O)Nc2cccc(F)c2)c1C(=O)OCC	.	.	3013	3.8	-3	-8	-32
77	N#C/C(=C(/O)COC(=O)CSc1ccc(Cl)cc1)c1nc2ccccc2[nH]1	-7	5	2259	-4.4	-6	3	-13

Results in PrP UTR inh, RN4220 kill and BJeLR lethal (2 entries from above):
No.	SMILES	PrP UTR inh	RN4220 kill	BJeLR lethal
51	COc1ccc(-n2c(SCC(=O)Nc3ccc(C(N)=O)cc3)nc3c([nH]c4ccccc43)c2=O)cc1OC	-8	5.4	15
52	O=C(c1cc(-c2ccncc2)nc2ccc(Br)cc12)N1CCN(Cc2ccc3c(c2)OCO3)CC1	-16	2.1	-17

Screening results from PubChem BioAssay.
